# RE007 growth inh: less growth of the S. pombe RE007 Vpr strain; S. pombe RE007 Vpr strain, BacTiter-Glo ATP luminescence, 24 h; control for the full effect not named in the record; Potency, µM (highest dose often 92.2 µM), inactives show top-dose activity change, negative = less growth; 0.21% of 360,000 active; active = well fitted falling curve with a large enough effect; inconclusive = small, poorly fitted or top-dose-only effect; inactive = no such curve, though single readings can be large or run the other way;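 further: on the % scale 0 is the no-effect control and ±100 the full control effect; nearly all actives have a fitted effect of over 50% in size; the assay follows cell death caused by Vpr and the record does not say whether a fall means rescue or toxicity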
#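 Fission yeast strain RE007, carrying one chromosomally integrated HIV-1 vpr copy, was seeded at OD 0.01 in PMG+AL medium with 23 nL pinned compound. After 24 h at 30 °C and 99% humidity, viability was read by BacTiter-Glo luminescence.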
# NS1 function inh: influenza NS1 inhibition; Potency, µM (series often up to 46.1 µM), for the others: at the top dose activity, positive = more growth; 0.4% of 270,000 active; S. cerevisiae slowed by influenza A NS1, growth recovery by OD600; active means well fitted rising curve with a large enough effect; inconclusive means small, poorly fitted or top-dose-only effect; inactive means no such curve, though single readings can be large or run the other way; further: nearly all actives have a fitted effect of over 50% in size
#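 Compounds were scored for reversing the slow growth caused by influenza A NS1 in S. cerevisiae, measured by optical density at 600 nm. Assay medium contained 2% galactose at pH 6.0; NS1-free yeast of the same strain were the positive control.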
# Cruzain inh Det: inhibitors of Trypanosoma cruzi cruzain with detergent; P25779; purified cruzain, Z-FR-AMC fluorescence, 0.01% Triton; Potency, µM, for inactives: max response, negative = inhibition, hits mostly inhibitors; 0.43% of 200,000 active; AID 1478;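 further: plate controls were neutral wells for no effect and buffer without enzyme for full effect; nearly all actives have a fitted effect of over 40% in size; top concentration of the series not given in the record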
# Target sequence (P25779 123-467 limits assumed): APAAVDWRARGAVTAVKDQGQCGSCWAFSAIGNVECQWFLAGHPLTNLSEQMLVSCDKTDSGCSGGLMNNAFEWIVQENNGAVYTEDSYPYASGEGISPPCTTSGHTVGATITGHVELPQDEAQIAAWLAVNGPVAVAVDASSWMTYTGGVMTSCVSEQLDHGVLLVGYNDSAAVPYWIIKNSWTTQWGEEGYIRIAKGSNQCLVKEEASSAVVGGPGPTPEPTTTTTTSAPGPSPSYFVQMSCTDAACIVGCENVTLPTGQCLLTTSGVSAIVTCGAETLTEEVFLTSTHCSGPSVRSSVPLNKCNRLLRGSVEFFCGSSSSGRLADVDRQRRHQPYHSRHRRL
#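 Detergent-containing run (0.01% Triton X-100) in acetate buffer pH 5.5 with 5 mM DTT: enzyme at 1.5 nM final, 15 min compound preincubation at room temperature, then 2 uM Z-FR-AMC substrate. Activity taken as 60 s fluorescence increase at 360/450 nm.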
# LASV entry inh: inhibitors of Lassa virus binding or cell entry; Lassa virus pseudotype entry inhibition, cell reporter; control for the full effect not named in the record; Potency, µM (series often up to 37.9 µM), for inactives: top-dose activity change, negative = inhibition, most hits filed as inhibitors; 1.2% of 300,000 active; AID 540256; active means well fitted inhibition curve with a large enough effect; inconclusive means small, poorly fitted or top-dose-only effect, or effect the other way; inactive means flat fitted curve, though single readings scatter; tested in HEK293 cells; further: on the % scale 0 is the no-effect control and ±100 the full control effect; nearly all actives have a fitted effect of over 50% in size; luciferase read-out
# 2A StopGo: lowers the luciferase signal of an FMDV 2A StopGo reporter | 1.2% of 410,000 active | human cells with a luciferase reporter of 2A StopGo recoding; control for the full effect not named in the record | AID 1159524 | Potency, µM (top dose mostly 57.9 µM), for the others: top-dose signal change, negative = less light; active = well fitted falling curve with a large enough effect; inconclusive = small, poorly fitted or top-dose-only effect; inactive = no such curve, though single readings can be large or run the other way; tested in HEK293T cells; further: on the % scale 0 is the no-effect control and ±100 the full control effect; nearly all actives have a fitted effect of over 45% in size; luciferase light after 4 h
# Cruzain inh noDet: cruzain (T. cruzi) inhibition without detergent; P25779; purified cruzain, Z-FR-AMC fluorescence, no detergent; Potency, µM, inactives show max response, negative = inhibition, actives largely listed as inhibitors; 2.3% of 200,000 active; AID 1476;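 further: plate controls were enzyme without inhibitor for no effect and buffer without enzyme for full effect; nearly all actives have a fitted effect of over 40% in size; top concentration of the series not given in the record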
#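 Purified cruzain at 1.5 nM, pre-incubated 15 min with compound at room temperature in 100 mM sodium acetate pH 5.5, 5 mM DTT, 0.00005% Triton X-100. Reaction started with 2 uM Z-FR-AMC; AMC fluorescence increase over 60 s gives rate.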
# MARV entry inh: inhibitors of Marburg virus binding or cell entry; Marburg virus pseudotyped entry inhibition, cell reporter; control for the full effect not named in the record; about a third of the inactives were read at about 46 µM; Potency, µM (doses to about 37.8 µM), for the others: at the top dose activity change, negative = inhibition, actives largely listed as inhibitors; 1.8% of 300,000 active; AID 540276; active = well fitted inhibition curve with a large enough effect; inconclusive = small, poorly fitted or top-dose-only effect, or effect the other way; inactive = flat fitted curve, though single readings scatter; tested in HEK293 cells; about a fifth of its hits are not listed in these tables; further: on the % scale 0 is the no-effect control and ±100 the full control effect; luciferase read-out
# SARS PLP yeast: inhibitors of SARS-CoV papain-like protease in yeast; S. cerevisiae expressing SARS-CoV PLpro, growth rescue; control for the full effect not named in the record; Potency, µM (series often up to 32.9 µM), without a hit: top-dose activity, positive = growth rescue; 0.19% of 330,000 active; AID 485353; active means well fitted rising curve with a large enough effect; inconclusive means small, poorly fitted or top-dose-only effect; inactive means no such curve, though single readings can be large or run the other way; further: 0% is about no effect; nearly all actives have a fitted effect of over 55% in size; growth read by luminescence after 48 h
# * marks the source's active call; other numbers are inactive results; ? = inconclusive; / = no result given; & = joins results of further samples; [ ] = dose if it differs, or a comment. Unless noted, the call rests on the fitted dose curve; in most records, active means well fitted curve in the direction sought with a large enough effect; inconclusive means small, poorly fitted or top-dose-only effect, or another doubt; inactive means no such curve, though single readings can be large; an effect the other way counts as inactive or inconclusive. Potency means the concentration at half of the fitted maximal effect.
SMILES,RE007 growth inh,NS1 function inh,Cruzain inh Det,LASV entry inh,2A StopGo,Cruzain inh noDet,MARV entry inh,SARS PLP yeast
COc1ccc(/C=C/C(=O)Nc2c(C)nn(C)c2C)cc1COc1ccc(Br)cc1,-7%,-1%,-3.4%,-13%,-24%,?,?,21%
O=C(Nc1c(C(=O)C2CC2)oc2ccccc12)c1ccc(Cl)cc1,30%,8%,-2.7%,8%,-6%,-9%,13%,10%
COc1cc2c(cc1OC)C(c1ccccc1F)OC(=O)C2 (configuration not stated),-6%,-7%,-2.4%,/,-10%,-6%,/,17%
COc1ccc(NC(=O)N2CCN(c3cccc(C(F)(F)F)c3)CC2)cc1,20%,-1%,0.8%,-6%,?,?,?,4%
O/N=C/c1ccnc(SCc2ccc(Cl)cc2)n1,2%,-36%,/,?,28%,/,?,-1%
CCN(CC)C(=O)CSc1nc2c(sc(=S)n2-c2ccccc2)c(=O)n1-c1ccc(OC)c(OC)c1,-5%,8%,/,/,-19%,/,/,2%
CCCCOc1ccc(C2CC(=O)N(C)C2=O)cc1 (configuration not stated),-27%,12%,-1.9%,2%,2%,4%,-1%,7%
Cn1c(=O)[nH]c(=O)c2c1nc(Sc1nc3ccccc3s1)n2Cc1ccccc1,?,11%,-5.2%,-6%,?,26%,?,11%
CCOc1ccccc1Nc1nc2ccccc2n2cnnc12,2%,0%,-2.6%,7%,-14%,1%,17%,-17%
O=C1Nc2cccnc2Sc2ccccc21,-1%,?,4.7%,19%,/,6%,6%,0%
O=C(OCC(=O)N(Cc1ccccc1)C1CCS(=O)(=O)C1)c1cc2c(s1)CCCC2 (configuration not stated),6%,14%,-10%,-18%,0%,25%,?,5%
CC(C)Oc1ccc(C(=O)NC2CCCCC2)cc1,-3%,4%,6.2%,-20%,39%[activator],-1%,-2%,-1%
CC(=O)/C(N=Nc1cc2c(c([N+](=O)[O-])c1C)C(C)(C)CC2(C)C)=C(\C)O,-16%,-1%,/,-3%,25µM*,/,6%,1%
CCN(CC)C(=O)Cn1cc(C(=O)C(=O)N2CCN(c3ccc([N+](=O)[O-])cc3)CC2)c2ccccc21,12%,?,/,?,-6%,/,?,-9%
Cn1c(N)c(C(=O)COC(=O)c2ccc(Cl)c(S(=O)(=O)N3CCCC3)c2)c(=O)n(C)c1=O,2%,4%,/,/,-23%,/,/,0%
CC(C)Cc1ccc(CN2CCCC(NC(=O)c3ccoc3)C2)cc1 (configuration not stated),14%,3%,/,?,-29%,/,?,2%
CCOC(=O)C1=C(C)NC(=O)NC1/C(C)=C/c1ccccc1 (configuration not stated),-12%,0%,-1.7%,-1%,-13%,3%,3%,0%
COc1cc(OC)nc(NC(=O)COC(=O)C2CCCCC2)n1,-15%,-17%,-17%,11%,-1%,-6%,-4%[46.1 µM],?
CSc1cccc(NC(=S)N(CCCN2CCC(C)CC2)Cc2cccs2)c1,-14%,/,/,-15%,0%,/,?,0%
C=CCN(CC=C)Cc1cc(=O)n2c(-c3ccccc3)csc2n1,11%,9%,/,29%[46.1 µM],0%,/,5%[46.1 µM],0%
CC(C)(C)n1cnc2cc(NCc3ccccc3Cl)ccc21,/,/,-8.3%,-1%[46.1 µM],6%,-5%,23%[46.1 µM],/
O=C(CCN1CCOCC1)NNC(=S)NC(=O)c1ccc(Br)cc1,48%,/,/,/,-5%,/,8%[46.1 µM],-7%
CCOc1ccccc1NC(=O)CCS(=O)(=O)c1cccc2nsnc12,-14%,4%,0.6%,-11%,-6%&-8%,6%,9%&12%[46.1 µM],5%
O=C(O)c1cc(-c2cccc3ccccc23)nc2ccccc12,6%,2%,/,1%[46.1 µM],-3%,/,?,-2%
N#CCCSCc1ccc(C(=O)O)o1,4%,9%,5.2%,3%,/,-4%,3%,4%
COc1ccc(Cl)cc1S(=O)(=O)N1CCN(C)CC1,-5%,-4%,0.8%,/,-13%,-16%,/,-1%
CCOC(=O)c1c(C)[nH]c(C)c1C(=O)COC(=O)c1cccc(C)c1O,-12%,-17%,-10%,3%,0%,15%,6%,-8%
Cc1csc(SCC(=O)N2CCCC2)n1,-6%,6%,1.5%,13%,-5%,3%,13%[46.1 µM],2%
CCC(C(=O)NCCCc1ccccc1)c1ccccc1 (configuration not stated),21%,-14%,-1.9%,16%,-17%,-1%,?,-7%
COc1cc(/C=C/C(=O)O)cc(S(=O)(=O)Nc2cccc(S(=O)(=O)N3CCOCC3)c2)c1OC,13%,-1%,/,/,-6%,/,/,-1%
Cc1csc(C(=O)NCC(=O)NNC(=O)c2cccc(Cl)c2)c1,-18%,12%,/,/,13%,/,/,6%
CCc1ccc(C(=O)NNC(=O)c2ccc(=O)n(C)n2)cc1,-7%,-19%,/,/,-6%,/,/,-3%
O=C(NCCc1csc(-c2cccnc2)n1)c1ccccc1Br,23%,1%,/,/,8%,/,/,-1%
COc1cc(/C=C/C(=O)NCC2CCCCC2)cc(OC)c1OC,2%,4%,/,-11%,0%,/,0%[46.1 µM],0%
O=C(N/N=C/c1cccn1-c1ccccc1)c1ccncc1,30%,/,/,/,3%,/,4%[46.1 µM],1%
O=C(O)CCCn1cc(NC(=O)COc2ccccc2[N+](=O)[O-])cn1,-5%,/,/,-7%[46.1 µM],-2%,/,4%[46.1 µM],-3%
O=C1C2CCCN2C(c2ccccc2)N1c1ccc(Cl)cc1 (configuration not stated),-18%,-6%,-1.5%,?,6%,6%,?,6%
O=C(CN1CCN(c2ccccc2F)CC1)N1CCc2ccccc21,-8%,-1%,/,13%,33%[activator],/,1%[46.1 µM],-2%
NNC(=O)c1sc(-c2ccc(Cl)cc2)cc1N,14%,/,/,-4%[46.1 µM],25%,/,?,-6%
COc1ccc(-c2noc(CCC(=O)Nc3cc(Cl)c(OC)cc3OC)n2)cc1,?,-14%,-7.3%,-4%,-21%,24%,?,3%
CCCOC(=S)N/C(=N\S(=O)(=O)c1ccccc1)c1ccccc1,-5%,-2%,-2.5%,3%,2%,-11%,-2%,-4%
CSCCNC(=O)c1ccc2nc(Cc3ccccc3F)oc2c1,-10%,-11%,/,-4%,68%[activator],/,?,1%
CCOC(=O)C1=C(C)N(C)C(=S)NC1c1ccc(Cl)cc1 (configuration not stated),11%,-14%,-4.6%,-16%,?,11%,?,?
CC(=O)Nc1ccc(NC(=S)NC(=O)c2ccc([N+](=O)[O-])c(C)c2)cc1,3%,9%,5.9%,0%,-12%,-13%,7%,2%
O=C(COC(=O)COc1ccc(Cl)cc1)NC1CCCCC1,9%,4%,0.4%,-4%,13%,2%,-1%[46.1 µM],-2%
CCN(CC)C(=O)Cn1cc(/C=C(\C#N)C(=O)N2CCN(c3ccccc3)CC2)c2ccccc21,12%,27%,4.8%,-15%,?,?,?,2%
Cc1cccc(N2CCN(C(=O)Cn3nc(C)c4sc5ccccc5c4c3=O)CC2)c1C,/,/,-6.3%,?,-11%,-21%,?,/
CCOC(=O)c1c(S(=O)(=O)Nc2ccccc2OCC)c(C)n(C)c1C,5%,6%,/,1%[46.1 µM],15%,/,-1%[46.1 µM],1%
O=C(NCC(c1ccc2c(c1)OCO2)N1CCN(c2ccccc2)CC1)c1ccc(F)c(F)c1 (configuration not stated),/,/,-3.5%,?,?,-15%,/,/
CC(=O)c1c(C)nc(Nc2nc3ccccc3s2)nc1C,-2%,-4%,/,/,50%[activator],/,/,0%
COc1ccc(NC(=O)C(NS(=O)(=O)c2cccs2)C(C)C)cc1Cl (configuration not stated),-2%,-3%,/,-14%,5%,/,3%[46.1 µM],-2%
CN(CC(=O)Nc1cccc(F)c1)C(=O)C1CCN(S(=O)(=O)c2ccc3c(c2)OCCO3)CC1,-5%,/,/,3%,-26%,/,0%,0%
COc1ccc(S(=O)(=O)Nc2ccc(Cl)cn2)cc1,7%,-2%,/,-2%[46.1 µM],55%[activator],/,6%[46.1 µM],-4%
C/C(N)=C(/C#N)C(=O)COC(=O)CNS(=O)(=O)c1ccc2ccccc2c1,-10%,-2%,/,0%[46.1 µM],1%,/,15%[46.1 µM],-1%
CCOc1ccccc1N1CCN(C(=S)NCc2ccco2)CC1,3%,-1%,-5.1%,15%,-14%,5%,?,-91%
CCOC(=O)C1=C(C)NC(c2cccs2)C(=O)N1 (configuration not stated),12%,-1%,1.2%,11%,-5%,9%,10%[46.1 µM],13%
Cc1cc(C)cc(NC(=S)NCCN2CCOCC2)c1,12%,/,/,-2%,1%,/,12%,/
COCc1nnc(NC(=O)C2CC(=O)N(C3CCCCC3)C2)s1 (configuration not stated),16%,8%,/,/,-17%,/,/,5%
O=C(NCc1ccccn1)c1cc2ccccn2n1,6%,-6%,2.8%,/,4%,-8%,/,-17%
CC(C)c1nc(N2CCCC2)c(C#N)c2c1CCCC2,?,-44%,-7.0%,?,?,-2%,-16%,-1%
# (listing goes on)
SMILES,RE007 growth inh,NS1 function inh,Cruzain inh Det,LASV entry inh,2A StopGo,Cruzain inh noDet,MARV entry inh,SARS PLP yeast
CCN(CC)c1ccc(NC(=O)CN2CCN(CC(=O)Nc3ccc(OC)cc3)CC2)cc1,6%,-2%,/,/,-2%,/,/,-1%
COc1ccc(-c2nn(-c3ccccc3)cc2CNCCN2CCOC2=O)c(F)c1,16%,-6%,/,-16%,1%,/,?,-1%
CN(c1ccc(OCC(=O)Nc2ccccc2C(=O)O)cc1)S(=O)(=O)c1ccc(Cl)cc1,39%,/,/,3.2µM*,-1%,/,3.5µM*,1%
CCCNC(=O)NC(=O)COC(=O)c1ccc(S(=O)(=O)N(C)c2ccccc2OC)cc1,5%,9%,/,-5%,17%,/,?,2%
NC(=O)CC(O)c1cccc(Cl)c1 (configuration not stated),1%,?,4.0%,-4%,1%,5%,11%,3%
COc1ccc(NC(=O)C2CCN(c3cnccn3)CC2)cc1Cl,3%,-7%,-2.1%,-10%&5%[46.1 µM],-9%&-19%,7%,?,-5%
N#Cc1cc([N+](=O)[O-])ccc1NC(=O)COC(=O)c1cnccn1,2%,/,/,14%,-17%,/,22%,-2%

# Assay outcomes: PubChem BioAssay, National Center for Advancing Translational Sciences (NCATS)
